# LASV entry inh = Lassa virus entry inhibition. actives 1.2% (n = 300,000). Potency, µM (series often up to 37.9 µM), for the others: at the highest dose activity change, negative = inhibition, hits mostly inhibitors. Lassa virus pseudotype entry inhibition, cell reporter; control for the full effect not named in the record; active means well fitted inhibition curve with a large enough effect; inconclusive means small, poorly fitted or top-dose-only effect, or effect the other way; inactive means flat fitted curve, though single readings scatter; tested in HEK293 cells; further: on the % scale 0 is the no-effect control and ±100 the full control effect; nearly all actives have a fitted effect of over 50% in size; luciferase read-out
# NS1 function inh = blocks influenza NS1 protein function. S. cerevisiae slowed by influenza A NS1, growth recovery by OD600. Potency, µM (doses to about 46.1 µM), for inactives: top-dose activity, positive = more growth. actives 0.4% (n = 270,000). AID 2326; active means well fitted rising curve with a large enough effect; inconclusive means small, poorly fitted or top-dose-only effect; inactive means no such curve, though single readings can be large or run the other way; further: nearly all actives have a fitted effect of over 50% in size
#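 Compounds were scored for reversing the slow growth caused by influenza A NS1 in S. cerevisiae, measured by optical density at 600 nm. Assay medium contained 2% galactose at pH 6.0; NS1-free yeast of the same strain were the positive control.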
# Cruzain Triton = inhibitors of Trypanosoma cruzi cruzain with detergent; purified cruzain, Z-FR-AMC fluorescence, 0.01% Triton; AID 1478; P25779; Potency, µM, for the others: max response, negative = inhibition, most hits filed as inhibitors; actives 0.43% (n = 200,000);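 further: plate controls were neutral wells for no effect and buffer without enzyme for full effect; nearly all actives have a fitted effect of over 40% in size; top concentration of the series not given in the record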
# Target sequence (P25779 123-467 limits assumed): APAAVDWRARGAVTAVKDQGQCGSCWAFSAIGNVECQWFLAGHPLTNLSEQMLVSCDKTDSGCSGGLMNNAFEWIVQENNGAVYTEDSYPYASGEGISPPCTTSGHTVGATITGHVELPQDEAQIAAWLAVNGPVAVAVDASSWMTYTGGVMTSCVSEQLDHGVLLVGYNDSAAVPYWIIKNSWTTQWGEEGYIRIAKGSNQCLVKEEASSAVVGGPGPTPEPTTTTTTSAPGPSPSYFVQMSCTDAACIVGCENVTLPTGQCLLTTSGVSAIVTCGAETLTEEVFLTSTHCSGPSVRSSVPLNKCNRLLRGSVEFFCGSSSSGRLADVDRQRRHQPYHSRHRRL
#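 Compounds were screened in titration against cruzain (1.5 nM) with 0.01% Triton X-100 to counter colloidal aggregation. Activity was the AMC fluorescence increase over 60 s after adding 2 uM Z-FR-AMC at pH 5.5.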
# StopGo reporter = FMDV 2A StopGo reporter, luciferase signal; Potency, µM (highest dose often 57.9 µM), for inactives: at the highest dose signal change, negative = less light; human cells with a luciferase reporter of 2A StopGo recoding; control for the full effect not named in the record; actives 1.2% (n = 410,000); AID 1159524; active = well fitted falling curve with a large enough effect; inconclusive = small, poorly fitted or top-dose-only effect; inactive = no such curve, though single readings can be large or run the other way; tested in HEK293T cells; further: on the % scale 0 is the no-effect control and ±100 the full control effect; nearly all actives have a fitted effect of over 45% in size; luciferase light after 4 h
# SARS PLP yeast = SARS-CoV PLP inhibition in yeast. S. cerevisiae expressing SARS-CoV PLpro, growth rescue; control for the full effect not named in the record. Potency, µM (highest dose often 32.9 µM), for inactives: at the highest dose activity, positive = growth rescue. actives 0.19% (n = 330,000). AID 485353; active means well fitted rising curve with a large enough effect; inconclusive means small, poorly fitted or top-dose-only effect; inactive means no such curve, though single readings can be large or run the other way; further: 0% is about no effect; nearly all actives have a fitted effect of over 55% in size; growth read by luminescence after 48 h
# MARV entry inh = Marburg virus entry inhibition. Marburg virus pseudotyped entry inhibition, cell reporter; control for the full effect not named in the record; about a third of the inactives were read at about 46 µM. Potency, µM (series often up to 37.8 µM), for the others: at the top dose activity change, negative = inhibition, hits mostly inhibitors. actives 1.8% (n = 300,000). AID 540276; active = well fitted inhibition curve with a large enough effect; inconclusive = small, poorly fitted or top-dose-only effect, or effect the other way; inactive = flat fitted curve, though single readings scatter; tested in HEK293 cells; about a fifth of its hits are not listed in these tables; further: on the % scale 0 is the no-effect control and ±100 the full control effect; luciferase read-out
# Cruzain noTriton = inhibitors of Trypanosoma cruzi cruzain without detergent. P25779. AID 1476. purified cruzain, Z-FR-AMC fluorescence, no detergent. Potency, µM, inactives show max response, negative = inhibition, usual class: inhibitors. actives 2.3% (n = 200,000);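 further: plate controls were enzyme without inhibitor for no effect and buffer without enzyme for full effect; nearly all actives have a fitted effect of over 40% in size; top concentration of the series not given in the record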
#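 Detergent-free condition (0.00005% Triton X-100) in acetate buffer pH 5.5 with DTT. 1.5 nM enzyme and compound were pre-mixed 15 min, then 2 uM Z-FR-AMC substrate added; reaction progress from fluorescence change between first and third reads (60 s).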
# RE007 growth inh = less growth of the S. pombe RE007 Vpr strain. S. pombe RE007 Vpr strain, BacTiter-Glo ATP luminescence, 24 h; control for the full effect not named in the record. Potency, µM (titrated, usually from 92.2 µM), without a hit: at the top dose activity change, negative = less growth. actives 0.21% (n = 360,000); active = well fitted falling curve with a large enough effect; inconclusive = small, poorly fitted or top-dose-only effect; inactive = no such curve, though single readings can be large or run the other way;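 further: on the % scale 0 is the no-effect control and ±100 the full control effect; nearly all actives have a fitted effect of over 50% in size; the assay follows cell death caused by Vpr and the record does not say whether a fall means rescue or toxicity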
#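 Fission yeast strain RE007, carrying one chromosomally integrated HIV-1 vpr copy, was seeded at OD 0.01 in PMG+AL medium with 23 nL pinned compound. After 24 h at 30 °C and 99% humidity, viability was read by BacTiter-Glo luminescence.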
# The depositor's hits bear a star; u = inconclusive; x = not tested or not shown; & = joins results of further samples; [ ] = remark or other dose. Unless noted, the call rests on the fitted dose curve; in most records, active means well fitted curve in the direction sought with a large enough effect; inconclusive means small, poorly fitted or top-dose-only effect, or another doubt; inactive means no such curve, though single readings can be large; an effect the other way counts as inactive or inconclusive. Potency means the concentration at half of the fitted maximal effect.
1: O=S(=O)(Nc1ccccn1)c1ccc(Cl)cc1
2: Cc1cccc(C(=O)N2CCc3cc(CNC(=O)CSc4ccccc4)ccc32)c1
3: CCn1cc(C(=O)NCC2CCCO2)c(=O)c2cc(S(=O)(=O)N3CCCCCC3)ccc21 (stereo not given)
4: Cn1c2ccccc2n2c(=O)c(Cl)c(-c3ccccc3)c(C#N)c12
5: CCCN1CCN(C(=O)c2oc3ccccc3c2NC(=O)COc2ccc(OC)cc2)CC1
6: O=C(O)C1CCCN(S(=O)(=O)c2ccccc2[N+](=O)[O-])C1 (stereo not given)
7: CCN1Cc2cccc(C(=O)Nc3ccc(F)cc3)c2C1=O
8: CCn1c(=O)c(=O)n(CC)c2cc(N3CCCCC3)c(NC(=O)c3cccc(OC)c3)cc21
9: COc1ccc(C(=O)Nc2ccc3c(c2)Cc2ccccc2-3)cc1
10: CCc1ccccc1NC(=O)CN(C)S(=O)(=O)c1cccc2nsnc12

Screen / compound no.	1	2	3	4	5	6	7	8	9	10
LASV entry inh	3%	-33%[46.1 µM]	u	10%	x	-15%[46.1 µM]	u	0%[46.1 µM]	9%	20%[46.1 µM]
NS1 function inh	-5%	x	-16%	-5%	-4%	-5%	x	x	-2%	x
Cruzain Triton	1.5%	-4.0%	1.0%	-6.0%	x	x	-2.5%	0.6%	5.6%	-3.0%
StopGo reporter	80%[activator]	2%	-6%	-3%	8%	-11%	-11%	-16%	8%	5%
SARS PLP yeast	2%	x	2%	-6%	0%	-4%	x	x	0%	x
MARV entry inh	0%	x	-17%&-17%	-21%	x	14%[46.1 µM]	u	22%[46.1 µM]	0%	11%[46.1 µM]
Cruzain noTriton	4%	-10%	u	-24%	x	x	-5%	-7%	10µM*	2%
RE007 growth inh	11%	x	-1%	-17%	-3%	-9%	x	x	-10%	x

11: O=S(=O)(NCCc1csc2nc(-c3ccccc3)nn12)c1cccs1
12: COc1cc(NC(=O)C2C3C=CC(C3)C2C(=O)O)c(OC)cc1Cl (stereo not given)
13: COc1ccc(-c2nc3cc(NC(=O)c4cc5ccccc5o4)ccc3o2)cc1
14: COc1ccc(CC(=O)N/N=C(\C)CC(=O)Nc2ccc(N(C)C)cc2)cc1OC
15: Cc1oc(-c2ccc3c(c2)OCCO3)cc1C(=O)NC(CCC(=O)O)C(=O)O (stereo not given)
16: Cc1ccc2nc(N(CCN(C)C)C(=O)c3ccc4c(c3)OCCO4)sc2c1
17: O=C(COC(=O)c1ccc(S(=O)(=O)N2CCOCC2)cc1)NC1CCCC1
18: Cc1ccc(S(=O)(=O)N2CC=C(C(=O)NC3CCCC3)CC2)cc1
19: COc1cccc(C(=O)Nc2cccc(C(=O)NC3=NN(c4c(Cl)cc(Cl)cc4Cl)C(=O)C3)c2)c1
20: CCCc1ccc(Oc2cn[nH]c2-c2ccc(O)c(C)c2O)cc1

Screen / compound no.	11	12	13	14	15	16	17	18	19	20
LASV entry inh	-9%[46.1 µM]	1%	24%[46.1 µM]	-1%[46.1 µM]	-22%	1%[46.1 µM]	3%	x	1%	-24%
NS1 function inh	x	5%	x	2%	3%	-10%	-3%	0%	u	-79%
Cruzain Triton	-6.2%	3.5%	-0.3%	x	2.2%	x	2.8%	x	-9.0%	-4.5%
StopGo reporter	2%	x	9%	13%	41%[activator]	12%	12%	-13%	-4%	x
SARS PLP yeast	x	-1%	x	-2%	1%	0%	-1%	-7%	-1%	-27%
MARV entry inh	x	-3%	x	u	-22%	-9%[46.1 µM]	23%	x	u	u
Cruzain noTriton	-5%	2%	-7%	x	-2%	x	17%	x	-26%	-10%
RE007 growth inh	x	-10%	x	-8%	4%	-3%	-7%	19%	-4%	u

21: CCOC(=O)c1cc(-c2ccccc2)n(CCC(=O)N2CCN(c3ccc(OC)cc3)CC2)c1C
22: Cc1nc2ccc(S(=O)(=O)N(C)CC(=O)NCc3ccc(N(C)C)cc3)cc2s1
23: COc1ccc(-c2cn3c(n2)sc2cc(C(=O)Nc4cccc(OC)c4)ccc23)cc1
24: O=C(COc1ccccc1-c1nc(-c2ccccc2)no1)Nc1cccc([N+](=O)[O-])c1
25: CCCCN(C)C(=O)C1CCN(Cc2ccccn2)CC1
26: Cc1ccccc1Nc1nc(N)nc(COC(=O)CCS(=O)(=O)c2ccc(Cl)cc2)n1
27: CCCOc1ccc(OCCCCNC(C)CC)cc1 (stereo not given)
28: COc1ccc(C)cc1NC(=O)C1CCN(S(=O)(=O)c2ccc3c(c2)C(C)(C)C(=O)N3C)CC1
29: CC(c1n[nH]c(=S)n1-c1ccccc1)N1CCCCC1 (stereo not given)
30: COc1ccc(/C=C/C(=O)c2ccc(OC)cc2OC)cc1

Screen / compound no.	21	22	23	24	25	26	27	28	29	30
LASV entry inh	u	-27%[46.1 µM]	-15%[46.1 µM]	-3%[46.1 µM]	-6%	5%	-6%	x	4%[46.1 µM]	x
NS1 function inh	15%	4%	x	x	1%	x	0%	-15%	x	-8%
Cruzain Triton	-3.4%	x	-1.8%	-7.2%	1.9%	x	-3.8%	x	x	x
StopGo reporter	u	-11%	7%	-13%	15%	-14%	-1%	-10%	0%	52%[activator]
SARS PLP yeast	-17%	-2%	x	x	6%	0%	3%	0%	1%	-5%
MARV entry inh	u	9%[46.1 µM]	x	-7%[46.1 µM]	2%	14%	-17%	x	12%[46.1 µM]	x
Cruzain noTriton	u	x	-1%	-1%	-4%	x	6%	x	x	x
RE007 growth inh	2%	-15%	x	x	4%	-14%	11%	-4%	-16%	-14%

# In the list so far, these have a furan ring, fused or not.
5: CCCN1CCN(C(=O)c2oc3ccccc3c2NC(=O)COc2ccc(OC)cc2)CC1
13: COc1ccc(-c2nc3cc(NC(=O)c4cc5ccccc5o4)ccc3o2)cc1
15: Cc1oc(-c2ccc3c(c2)OCCO3)cc1C(=O)NC(CCC(=O)O)C(=O)O (stereo not given)

Screen / compound no.	5	13	15
LASV entry inh	x	24%[46.1 µM]	-22%
NS1 function inh	-4%	x	3%
Cruzain Triton	x	-0.3%	2.2%
StopGo reporter	8%	9%	41%[activator]
SARS PLP yeast	0%	x	1%
MARV entry inh	x	x	-22%
Cruzain noTriton	x	-7%	-2%
RE007 growth inh	-3%	x	4%

# Pulled one by one from the entries so far:
25: CCCCN(C)C(=O)C1CCN(Cc2ccccn2)CC1
24: O=C(COc1ccccc1-c1nc(-c2ccccc2)no1)Nc1cccc([N+](=O)[O-])c1

Screen / compound no.	25	24
LASV entry inh	-6%	-3%[46.1 µM]
NS1 function inh	1%	x
Cruzain Triton	1.9%	-7.2%
StopGo reporter	15%	-13%
SARS PLP yeast	6%	x
MARV entry inh	2%	-7%[46.1 µM]
Cruzain noTriton	-4%	-1%
RE007 growth inh	4%	x

# New compounds follow.
31: O=C(CN1CCN(Cc2ccccc2)CC1)NCC1COc2ccccc2O1 (stereo not given)
32: Clc1ccccc1C1=CC(c2ccco2)n2nnnc2N1 (stereo not given)
33: CC1Sc2ccc(S(=O)(=O)CCC(=O)N3CCc4ccccc43)cc2NC1=O (stereo not given)
34: CCOC(=O)c1cccc(NC(=O)CCn2c(=O)oc3ccccc32)c1
35: CCOC(=O)c1cnc2c(Cl)cc(Cl)cc2c1NCCCN1CCOCC1
36: Cn1c(=O)[nH]c(=O)c2c1nc(OC(=O)c1ccccc1)n2CC(O)COc1ccccc1 (stereo not given)
37: COc1cccc(NC(=O)NC2(C(F)(F)F)Oc3ccccc3O2)c1
38: Cc1ccc(N2CC(NC(=O)c3ccc(Br)o3)CC2=O)cc1C (stereo not given)
39: COc1cccc(CN2CCN(C(=O)c3ccco3)CC2)c1
40: Nc1nnc(SCC(=O)Nc2nccs2)s1

Screen / compound no.	31	32	33	34	35	36	37	38	39	40
LASV entry inh	18%	1%[46.1 µM]	x	u	x	4%	-19%	-1%[46.1 µM]	x	-1%
NS1 function inh	-2%	-8%	10%	-4%	-1%	6%	0%	x	14%	2%
Cruzain Triton	2.1%	x	x	-5.5%	x	1.7%	-4.5%	-0.8%	x	x
StopGo reporter	7%	15%	-15%	22%&-5%	-29%	-5%	-20%	-17%	-13%	-11%
SARS PLP yeast	-6%	-1%	-2%	-2%	-2%	7%	-4%	x	2%	-1%
MARV entry inh	5%	19%[46.1 µM]	x	u	x	-10%	8.2µM*	x	x	-1%[46.1 µM]
Cruzain noTriton	-5%	x	x	-6%	x	26%	-28%	-8%	x	x
RE007 growth inh	6%	27%	1%	11%	3%	-4%	-5%	x	0%	-7%

41: CCOCc1cc(CN2CCN(c3cccc(Cl)c3)CC2)c(O)c2ncccc12
42: CC(C)c1ccc(NC(=O)CN2C(=O)NC(C)(C3CC3)C2=O)cc1 (stereo not given)
43: CSc1nnc(CCNC(=O)OC(C)(C)C)o1
44: COc1cccc(-n2nc(C(C)=O)c(=O)[nH]c2=O)c1
45: CC(=O)c1ccc(NC(=O)COc2ccccc2-c2nc(C)no2)cc1
46: COc1ccc(C2CC(c3ccccc3OC(C)=O)=NN2C(C)=O)cc1 (stereo not given)
47: Cc1c(C(=O)N2CCN(Cc3ccc4c(c3)OCO4)CC2)sc2ncnc(N3CCN(c4ccccc4)CC3)c12
48: CCOc1ccc2nc(SCC(=O)NCc3ccc(OC)c(OC)c3)[nH]c2c1

Screen / compound no.	41	42	43	44	45	46	47	48
LASV entry inh	u	2%	x	8%	-26%[46.1 µM]	x	x	-11%
NS1 function inh	x	x	0%	x	x	-4%	2.5µM*	x
Cruzain Triton	0.0%	x	x	x	1.6%	x	x	x
StopGo reporter	-23%	-12%	7%	5%	6%	2%	2.5µM*	0%
SARS PLP yeast	x	-1%	0%	0%	x	-3%	-11%	-1%
MARV entry inh	u	13%	x	16%[46.1 µM]	2%[46.1 µM]	x	x	19%
Cruzain noTriton	-11%	x	x	x	u	x	x	x
RE007 growth inh	x	20%	-8%	-21%	x	21%	-6%	-6%

# Values by screen from above.
# Entries 41 to 48 in MARV entry inh, in turn: u, 13%, x, 16%[46.1 µM], 2%[46.1 µM], x, x, 19%

# Screening data deposited in PubChem BioAssay by National Center for Advancing Translational Sciences (NCATS).
